# From PubChem
# Yeast UUG start: modulators of start codon recognition fidelity in yeast | S. cerevisiae UUG-firefly luciferase reporter, luminescence/redox ratio | activity score, % at 18.7 µM | hit rate 0.13% among 350,000;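 active means replicate mean at a twofold rise or more, about +100% in these data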;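 further: firefly luciferase made from a UUG start codon reports start codon fidelity; reporter light over untreated wells divided by growth signal over untreated wells; some hits fall short of that in this replicate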
# Active calls of the source: *.
SMILES,Yeast UUG start
CC(C)NC(=O)N(C)C[C@H]1Oc2ccc(NC(=O)Nc3ccc(F)cc3)cc2C(=O)N([C@H](C)CO)C[C@@H]1C,-6
O=C(Nc1cc(F)ccc1F)N1C[C@H]2[C@@H](c3ccccc31)[C@@H](CO)N2C(=O)c1ccccc1,-1
COCC(=O)Nc1ccc2c(c1)C(=O)N(C)C[C@@H](OC)[C@H](C)CN(CC1CCCCC1)[C@@H](C)CO2,11
CCC(=O)N1[C@H](CNC(C)=O)[C@@H](c2ccc(-c3cccc(F)c3)cc2)[C@@H]1CO,1
O=S(=O)(NC[C@@H]1[C@H](c2ccccc2)[C@H](CO)N1CC1CC1)c1ccccc1,18
Cc1ccc(S(=O)(=O)N(C)C[C@H]2Oc3c(NC(=O)NC(C)C)cccc3C(=O)N([C@H](C)CO)C[C@@H]2C)cc1,22
O=C(C[C@@H]1CC[C@@H]2[C@H](COC[C@@H](O)CN2C(=O)c2ccncc2)O1)Nc1ccc(-c2ccccc2)cc1,-8
C[C@H]1CN([C@@H](C)CO)C(=O)CCCn2nncc2CO[C@@H]1CN(C)Cc1ccccc1C(=O)O,-11
CC(=O)N1[C@H](CNC(=O)CN(C)C)[C@H](c2ccc(C3=CCCCC3)cc2)[C@@H]1CO,6
CCCN1C[C@@H](C)[C@@H](OC)CN(C)C(=O)c2cc(NS(=O)(=O)CC)ccc2OC[C@@H]1C,13
Cc1noc(C)c1NC(=O)N(C)C[C@@H]1Oc2ccc(NC(=O)Cn3cnnn3)cc2C(=O)N([C@H](C)CO)C[C@@H]1C,5
O=S(=O)(c1cccc(F)c1)N1CC[C@@H]2[C@@H](CO)Nc3ccc(C#Cc4ccccc4F)cc3[C@@H]21,-18
COCC(=O)Nc1ccc2c(c1)OC[C@@H](C)N(Cc1cc(F)ccc1F)C[C@@H](C)[C@@H](OC)CN(C)C2=O,-2
C[C@H]1CN([C@@H](C)CO)C(=O)c2cccc(NS(=O)(=O)c3ccc(Cl)cc3)c2O[C@@H]1CN(C)C,-3
CO[C@H]1CN(C)C(=O)c2ccc(NC(=O)C3CC3)cc2OC[C@H](C)N(C(=O)CN2CCOCC2)C[C@@H]1C,-8
C[C@@H]1CN([C@@H](C)CO)C(=O)c2cc(NC(=O)Nc3ccccc3)ccc2O[C@H]1CN(C)C(=O)Nc1ccc(F)cc1,2
COc1cccc(S(=O)(=O)Nc2ccc3c(c2)[C@H]2C[C@H](CC(=O)N(C)C)O[C@H](CO)[C@H]2O3)c1,6
C[C@H](CO)N1C[C@H](C)[C@@H](CN(C)Cc2ccc3c(c2)OCO3)Oc2ccc(NC(=O)Nc3ccc(F)cc3)cc2CC1=O,-3
COCC(=O)N1CCCCN2[C@H](CO)[C@H](c3ccc(-c4ccccc4)cc3)[C@H]2C1,2
CCC(=O)Nc1ccc2c(c1)C(=O)N(C)C[C@@H](OC)[C@@H](C)CN(C(=O)C1CC1)[C@H](C)CO2,-3
C[C@@H]1CN([C@@H](C)CO)C(=O)Cc2cc(NC(=O)Cc3ccccc3)ccc2O[C@@H]1CN(C)C,-10
O=C(c1cccnc1)N1CC[C@@H]2[C@H](CO)Nc3ccc(C#Cc4cccnc4)cc3[C@@H]21,6
COc1ccccc1C(=O)N1C[C@@H]2[C@H](c3ccccc31)[C@@H](CO)N2C(=O)C1CCCCC1,6
COc1ccc(CN(C)C[C@H]2Oc3ccc(NC(=O)Nc4ccc(F)cc4)cc3C(=O)N([C@@H](C)CO)C[C@@H]2C)cc1,6
C[C@@H]1CN([C@@H](C)CO)C(=O)c2cccc(NC(=O)c3ccncc3)c2O[C@@H]1CN(C)S(=O)(=O)c1ccc(Cl)cc1,-2
COc1cccc(NC(=O)N2C[C@@H](O)COC[C@H]3O[C@H](CC(=O)NC4CCCC4)CC[C@@H]32)c1,5
CN1C(=O)c2cc(NC(=O)c3ccccc3)ccc2OC[C@H]2O[C@@H](CC(=O)NC3CCCC3)CC[C@@H]21,0
Cc1cccc(S(=O)(=O)N2CCCCN3[C@H](CO)[C@H](c4ccc(C#C[C@@H](C)O)cc4)[C@H]3C2)c1,11
C[C@H](CO)N1C[C@H](C)[C@@H](CN(C)C(=O)Nc2ccc3c(c2)OCO3)Oc2ccc(NS(C)(=O)=O)cc2C1=O,0
CO[C@@H]1CN(C)C(=O)c2ccc(NC(C)=O)cc2OC[C@@H](C)N(Cc2cc(-c3ccccc3)on2)C[C@H]1C,6
COc1ccccc1S(=O)(=O)N1CC[C@@H]2[C@@H](CO)Nc3ccc(-c4ccccc4F)cc3[C@@H]21,-32
COc1cccc(-c2ccc([C@H]3[C@@H](CO)N4CCCCN(C(=O)c5ccc(F)cc5)C[C@H]34)cc2)c1,-5
C[C@@H]1CN([C@H](C)CO)C(=O)Cc2cc(NC(=O)c3ccncc3)ccc2O[C@H]1CN(C)C(=O)Nc1ccc(F)cc1,-10
Cc1ccc(S(=O)(=O)Nc2cccc3c2O[C@H](CN(C)C(=O)Nc2ccc4c(c2)OCO4)[C@H](C)CN([C@H](C)CO)C3=O)cc1,21
COCC(=O)Nc1ccc2c(c1)[C@H]1C[C@@H](CC(=O)NCc3ccncc3)O[C@@H](CO)[C@H]1O2,-12
CN1c2ccc(-c3ccccc3F)cc2[C@H]2[C@H](CCN2S(=O)(=O)c2ccc(F)cc2)[C@H]1CO,-12
CN1c2ccc(-c3ccccc3)cc2[C@H]2[C@H](CCN2C(=O)Cc2cccnc2)[C@@H]1CO,-11
C[C@@H]1CN([C@@H](C)CO)C(=O)c2cc(NC(=O)c3ccncc3)ccc2O[C@H]1CN(C)Cc1ccc(-c2ccccc2)cc1,-2
CCC(=O)Nc1ccc2c(c1)C(=O)N(C)C[C@@H](OC)[C@@H](C)CN(C(=O)c1ccccn1)[C@@H](C)CO2,-14
C[C@H]1CN([C@@H](C)CO)C(=O)c2cc(NS(=O)(=O)c3cccs3)ccc2O[C@@H]1CN(C)S(=O)(=O)c1ccc(Cl)cc1,3
CCCNC(=O)Nc1ccc2c(c1)C(=O)N(C)C[C@H](OC)[C@H](C)CN(Cc1cncnc1)[C@@H](C)CO2,-4
CNC[C@H]1Oc2ccc(NC(=O)Cn3cnnn3)cc2CC(=O)N([C@@H](C)CO)C[C@H]1C,-4
C[C@@H]1CN([C@H](C)CO)C(=O)c2cccc(NS(=O)(=O)c3cn(C)cn3)c2O[C@H]1CN(C)C(=O)Nc1ccc(C(F)(F)F)cc1,-9
COCC(=O)Nc1ccc2c(c1)OC[C@H](C)N(C(=O)c1ccccc1)C[C@@H](C)[C@H](OC)CN(C)C2=O,0
Cc1ccc(S(=O)(=O)N(C)C[C@@H]2Oc3c(NC(=O)C4CC4)cccc3C(=O)N([C@@H](C)CO)C[C@H]2C)cc1,-4
C[C@H]1CN([C@@H](C)CO)C(=O)Cc2cc(NC(=O)NC3CCCCC3)ccc2O[C@@H]1CN(C)C(=O)Nc1ccc(F)cc1,20
O=C(NC[C@@H]1[C@H](c2ccccc2)[C@@H](CO)N1Cc1cccnc1)c1ccccn1,13
O=C(NC[C@@H]1[C@H](c2ccccc2)[C@H](CO)N1Cc1ccccn1)C1CC1,-21
CN1c2ccc(-c3ccc(F)cc3)cc2[C@@H]2[C@@H](CCN2C(=O)c2cccc(F)c2)[C@@H]1CO,3
C[C@@H]1CN([C@H](C)CO)C(=O)c2cc(NC(=O)Nc3ccc(F)cc3)ccc2O[C@H]1CN(C)Cc1ccc(C(F)(F)F)cc1,15
CC(=O)N1[C@H](CNC(=O)CN2CCOCC2)[C@@H](c2ccccc2)[C@@H]1CO,9
CC=Cc1ccc2n(c1=O)C[C@H]1[C@H](CO)[C@@H](C(=O)NCc3ccccc3F)N(S(C)(=O)=O)[C@@H]21 (mixture of isomers),1
CCN(C[C@H]1N[C@H](CO)[C@@H]1c1ccc(-c2ccc(F)cc2)cc1)C(=O)COC,29
OC[C@@H]1[C@@H](c2ccc(-c3ccccc3)cc2)[C@H]2CN(Cc3cncnc3)CCCCN12,-9
CO[C@@H]1CN(C)C(=O)c2ccc(NC(=O)C3CCC3)cc2OC[C@@H](C)N(Cc2ccncc2)C[C@@H]1C,-8
C[C@@H]1CN([C@H](C)CO)C(=O)c2cc(NS(=O)(=O)c3cn(C)cn3)ccc2O[C@H]1CN(C)C(=O)Nc1ccc2c(c1)OCO2,-5
COc1ccccc1C#Cc1ccc([C@@H]2[C@H](CO)N3CCCCN(C(=O)C4CCCC4)C[C@@H]23)cc1,-5
O=C(c1cccc(F)c1)N1C[C@H]2[C@@H](c3ccccc31)[C@H](CO)N2C(=O)c1ccccn1,13
C[C@H](CO)N1C[C@H](C)[C@H](CN(C)C(=O)Nc2cccc3ccccc23)Oc2ccc(NS(=O)(=O)c3cccs3)cc2C1=O,4
OC[C@@H]1[C@@H](c2ccc(-c3cccnc3)cc2)[C@H]2CN(CC3CC3)CCCCN12,-17
# (continued)
SMILES,Yeast UUG start
O=C(NC1Cc2ccccc2C1)[C@H]1[C@H](CO)[C@H]2Cn3c(ccc(C4=CCCCC4)c3=O)[C@@H]1N2,4
CO[C@@H]1CN(C)C(=O)c2cc(NC(=O)C3CCC3)ccc2OC[C@H](C)N(Cc2ccc(F)cc2)C[C@H]1C,10
COc1ccc(CN(C)C[C@H]2Oc3ccc(NS(=O)(=O)c4cn(C)cn4)cc3CC(=O)N([C@H](C)CO)C[C@H]2C)cc1,9
CCC(=O)N1[C@H](C(=O)NC2CCCCC2)[C@@H](CO)[C@@H]2Cn3c(cccc3=O)[C@@H]21,-8
C[C@H]1CN([C@@H](C)CO)C(=O)c2cccc(NC(=O)NC3CCCCC3)c2O[C@H]1CN(C)S(=O)(=O)c1cccs1,12
COc1ccccc1S(=O)(=O)N1CC[C@@H]2[C@H](CO)Nc3ccc(-c4cccc(C#N)c4)cc3[C@@H]21,15
COc1ccc(S(=O)(=O)N(C)C[C@H]2Oc3c(NC(=O)C4CCCCC4)cccc3C(=O)N([C@@H](C)CO)C[C@H]2C)cc1,16
OC[C@H]1[C@@H](c2ccc(C#Cc3cccnc3)cc2)[C@H]2CN(Cc3ccccc3F)CCCCN21,11
COCC#Cc1ccc([C@H]2[C@@H](CO)N3CCCCN(Cc4ccncc4)C[C@H]23)cc1,-11
CO[C@H]1CN(C)C(=O)c2ccc(NC(=O)C3CCC3)cc2OC[C@H](C)N(Cc2nccs2)C[C@@H]1C,0
O=C(CC(F)(F)F)N1C[C@H]2[C@@H](c3ccccc31)[C@H](CO)N2C(=O)C1CC1,34
O=C(C[C@H]1CC[C@@H]2[C@H](COC[C@H](O)CN2Cc2ccc(Oc3ccccc3)cc2)O1)N1CCOCC1,-7
COc1ccc(CN(C)C[C@H]2Oc3c(NC(=O)Nc4ccc(C(F)(F)F)cc4)cccc3C(=O)N([C@@H](C)CO)C[C@H]2C)cc1,6
COc1cccc(C(=O)N2C[C@H]3[C@@H](c4ccccc42)[C@@H](CO)N3C(=O)c2ccccc2)c1,5
OC[C@@H]1[C@H](c2ccc(C#Cc3ccccc3F)cc2)[C@@H]2CN(Cc3cncnc3)CCCCN12,13
CC(C)NC(=O)N(C)C[C@H]1Oc2ccc(NC(=O)Nc3ccc(F)cc3)cc2C(=O)N([C@@H](C)CO)C[C@@H]1C,-4
CO[C@@H]1CN(C)C(=O)c2cc(NC(=O)c3ccc4c(c3)OCO4)ccc2OC[C@@H](C)N(CCC(F)(F)F)C[C@@H]1C,28
C[C@@H]1CN([C@H](C)CO)C(=O)Cc2cc(NS(=O)(=O)c3cccs3)ccc2O[C@@H]1CN(C)CC1CC1,22
Cc1ccc(S(=O)(=O)N(C)C[C@@H]2Oc3ccc(NC(=O)C4CC4)cc3C(=O)N([C@H](C)CO)C[C@@H]2C)cc1,-6
COc1ccc(CN(C)C[C@@H]2Oc3ccc(NS(C)(=O)=O)cc3C(=O)N([C@@H](C)CO)C[C@@H]2C)cc1,-6

# 14 entries out of the list, sorted by SMILES length, lowest first:
SMILES,Yeast UUG start
CCN(C[C@H]1N[C@H](CO)[C@@H]1c1ccc(-c2ccc(F)cc2)cc1)C(=O)COC,29
CCC(=O)N1[C@H](CNC(C)=O)[C@@H](c2ccc(-c3cccc(F)c3)cc2)[C@@H]1CO,1
CCC(=O)N1[C@H](C(=O)NC2CCCCC2)[C@@H](CO)[C@@H]2Cn3c(cccc3=O)[C@@H]21,-8
COc1ccccc1C#Cc1ccc([C@@H]2[C@H](CO)N3CCCCN(C(=O)C4CCCC4)C[C@@H]23)cc1,-5
COCC(=O)Nc1ccc2c(c1)[C@H]1C[C@@H](CC(=O)NCc3ccncc3)O[C@@H](CO)[C@H]1O2,-12
COc1ccccc1S(=O)(=O)N1CC[C@@H]2[C@H](CO)Nc3ccc(-c4cccc(C#N)c4)cc3[C@@H]21,15
CCCNC(=O)Nc1ccc2c(c1)C(=O)N(C)C[C@H](OC)[C@H](C)CN(Cc1cncnc1)[C@@H](C)CO2,-4
Cc1cccc(S(=O)(=O)N2CCCCN3[C@H](CO)[C@H](c4ccc(C#C[C@@H](C)O)cc4)[C@H]3C2)c1,11
COCC(=O)Nc1ccc2c(c1)OC[C@@H](C)N(Cc1cc(F)ccc1F)C[C@@H](C)[C@@H](OC)CN(C)C2=O,-2
CO[C@@H]1CN(C)C(=O)c2ccc(NC(C)=O)cc2OC[C@@H](C)N(Cc2cc(-c3ccccc3)on2)C[C@H]1C,6
CC(C)NC(=O)N(C)C[C@H]1Oc2ccc(NC(=O)Nc3ccc(F)cc3)cc2C(=O)N([C@@H](C)CO)C[C@@H]1C,-4
C[C@@H]1CN([C@H](C)CO)C(=O)Cc2cc(NC(=O)c3ccncc3)ccc2O[C@H]1CN(C)C(=O)Nc1ccc(F)cc1,-10
CO[C@@H]1CN(C)C(=O)c2cc(NC(=O)c3ccc4c(c3)OCO4)ccc2OC[C@@H](C)N(CCC(F)(F)F)C[C@@H]1C,28
Cc1ccc(S(=O)(=O)Nc2cccc3c2O[C@H](CN(C)C(=O)Nc2ccc4c(c2)OCO4)[C@H](C)CN([C@H](C)CO)C3=O)cc1,21

# (cont.)
SMILES,Yeast UUG start
C[C@H](CO)N1C[C@H](C)[C@@H](CN(C)S(C)(=O)=O)OCc2ccccc2-c2c(n(C)c3ccccc23)C1=O,4
CO[C@H]1CN(C)C(=O)c2cc(NC(=O)C3CC3)ccc2OC[C@@H](C)N(Cc2ccc(F)cc2)C[C@@H]1C,-3
O=C(C1CCC1)N1CCCCN2[C@H](C1)[C@H](c1ccc(-c3cccc(F)c3)cc1)[C@@H]2CO,-7
O=C(Cc1ccccn1)N1[C@H](CO)[C@@H]2c3ccccc3NC[C@@H]21,-4

# Only part of the results is shown; count on the stated rates, not on these rows.
